# Bioassay records (PubChem)
# Mtb H37Rv – M. tuberculosis H37Rv growth inhibitors, H37Rv strain (AID 1626). M. tuberculosis H37Rv growth inhibition; higher % means a stronger effect. one-dose inhibition, % at 10 µM; IC50 in µM for titrated hits. 220,000 compounds, 0.95% hits;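 active = confirmed in a dose series; inconclusive = inhibition above 80% but not taken into the dose series; inactive = below 80% or under 30% at every dose of the series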;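 note: bacteria incubated seven days before Alamar blue readout; 0% = bacteria only wells and 100% = bacteria with antibiotic wells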
# Arbovirus inh – antivirals against arbovirus infection, primary screen, cell-based, full library, 10K replicate subset; arbovirus infection cell-based antiviral screen; inhibition, % at 10 µM; 200,000 compounds, 0.37% hits; AID 1251, 2008;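 active = inhibition from about 30%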;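 note: bluetongue infection of BSR cells; cell survival read as ATP light after 72 h; 0% = infected wells without compound and 100% = uninfected wells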
# YopH PTP inh – YopH tyrosine phosphatase inhibitors, primary screen, biochemical, fluorescence Ex485/Em525. inhibition, %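 (about 10 µM by stock and volumes)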. 140,000 compounds, 0.16% hits. AID 898, 2007;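 active = inhibition of 50% or more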;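 note: controls were vehicle for no effect and minimum signal wells for full effect; inactives centre near -20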
# RecA intein inh – Mtb RecA intein splicing inhibitors, primary screen, biochemical, fluorescence, HTS; inhibition, %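 (about 9 µM by stock and volumes)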; 290,000 compounds, 0.75% hits; cell-free RecA intein splicing; AID 2221, 2009; in the data active = inhibition above about 30%; inconclusive = no clear call, values can overlap the other calls;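 note: 0% = vehicle wells and 100% = reference inhibitor control wells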
# Target sequence (P9WHJ3 whole entry, looked up): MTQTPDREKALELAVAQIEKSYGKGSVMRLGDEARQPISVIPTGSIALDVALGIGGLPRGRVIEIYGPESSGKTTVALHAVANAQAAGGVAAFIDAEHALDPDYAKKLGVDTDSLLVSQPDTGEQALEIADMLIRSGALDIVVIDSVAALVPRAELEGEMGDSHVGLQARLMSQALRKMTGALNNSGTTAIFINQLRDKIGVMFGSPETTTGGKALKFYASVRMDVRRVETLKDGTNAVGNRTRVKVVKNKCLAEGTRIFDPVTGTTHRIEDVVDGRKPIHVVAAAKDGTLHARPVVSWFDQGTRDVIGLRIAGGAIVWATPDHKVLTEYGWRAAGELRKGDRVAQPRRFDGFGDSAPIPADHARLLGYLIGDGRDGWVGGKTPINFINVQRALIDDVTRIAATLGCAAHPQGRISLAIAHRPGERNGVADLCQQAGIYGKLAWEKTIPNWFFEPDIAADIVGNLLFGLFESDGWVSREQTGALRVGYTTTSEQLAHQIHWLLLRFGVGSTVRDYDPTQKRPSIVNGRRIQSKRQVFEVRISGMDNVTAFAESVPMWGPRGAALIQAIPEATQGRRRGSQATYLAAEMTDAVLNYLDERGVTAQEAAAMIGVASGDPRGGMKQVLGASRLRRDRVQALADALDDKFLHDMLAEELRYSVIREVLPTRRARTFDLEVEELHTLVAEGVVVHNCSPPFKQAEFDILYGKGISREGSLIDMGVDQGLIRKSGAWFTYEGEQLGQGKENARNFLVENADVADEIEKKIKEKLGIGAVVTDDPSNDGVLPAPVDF
# Mtb betalactam – beta-lactam sensitization of Mtb H37Rv, H37Rv; inhibition, % at 25 µM; 330,000 compounds, 0.27% hits; M. tuberculosis H37Rv growth with meropenem, percent inhibition; hits of this screen are not shown here; AID 434955, 2010;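 active = about 74% or more and at least 40 points above the plate without the antibiotic, then above 30% in a dose series; inconclusive = first-round hits that could not be retested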;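 note: growth measured after seven days incubation then overnight dye step; 0% = bacteria only wells and 100% = bacteria with antibiotic; twin plates without the antibiotic show which effects depend on it; some results filed as inactive read as strong as hits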
# Arbovirus inh repeat – recorded beside Arbovirus inh, whose call it bears; inhibition, %; measured here: 10K subset replicate screen; many hits read low in the repeat;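 first of two repeat runs on a subset; 0% = infected and 100% = uninfected wells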
# An asterisk follows results filed as active; ? = inconclusive; . = not tested or not shown.
SMILES,Mtb H37Rv,Arbovirus inh,YopH PTP inh,RecA intein inh,Mtb betalactam,others
COC(=O)c1ccc(C(=O)NC2CCCc3c2cnn3-c2ccc(C)c(C)c2)cc1 (configuration not stated),.,.,.,-1.3,6,
Nc1nc(SCC(=O)c2cccc([N+](=O)[O-])c2)n[nH]1,2%,-2,-23,1.0,-2,
CC1(C)Oc2ccc3ccc(=O)oc3c2/C(=C/Nc2ccccn2)C1=O,-6%,-8,-15,1.7,1,Arbovirus inh repeat=-4
O=S(=O)(NCCc1c[nH]c2ccccc12)c1ccccc1,.,.,.,1.0,4,
CCc1nc(SCc2ccc(C(=O)OC)o2)n[nH]1,2%,1,.,-0.7,-8,
Cc1ccc(CNC(=O)c2cc3cc(Br)ccc3oc2=N)cc1,.,.,.,-1.0,-11,
CC(C)CC(=O)c1c[nH]c(C(=O)NCc2cccs2)c1,1%,-9,-14,-0.8,-7,
C[N+](C)(C)CCc1ccc(O)cc1,.,-4,.,-0.6,-4,
CC(=O)c1ccc(N2C(=NC(=O)CCc3ccccc3)SC3CS(=O)(=O)CC32)cc1 (configuration not stated),.,.,.,-2.2,7,
O=[N+]([O-])c1c(Nc2ccccc2O)cc(N2CCOCC2)c2nonc12,-15%,.,.,0.6,-4,
O=S(=O)(Nc1nc2ccccc2nc1-[n+]1ccccc1)c1ccc(Cl)cc1,-1%,1,-29,1.9,1,
COc1cccc(CC(=O)OCC(=O)Nc2nnc(-c3ccccc3)o2)c1,.,.,.,-1.7,30,

# The final 2 records of the part before open the next one:
SMILES,Mtb H37Rv,Arbovirus inh,YopH PTP inh,RecA intein inh,Mtb betalactam,others
O=S(=O)(Nc1nc2ccccc2nc1-[n+]1ccccc1)c1ccc(Cl)cc1,-1%,1,-29,1.9,1,
COc1cccc(CC(=O)OCC(=O)Nc2nnc(-c3ccccc3)o2)c1,.,.,.,-1.7,30,
COCCNS(=O)(=O)c1cccn1-c1ncc(C(F)(F)F)cc1Cl,3%,5,-11,1.0,-12,
COc1ccc(CCNS(=O)(=O)c2ccc3c(c2)OCCO3)cc1OC,-6%,4,0,-2.3,2,Arbovirus inh repeat=10
COc1ccc(CCN2C(=S)NC3CC2(C)Oc2ccc([N+](=O)[O-])cc23)cc1OC (configuration not stated),2%,-11,-30,1.0,14,
CCOc1ccccc1NC(=O)CN1CCCCCC1,.,.,.,0.4,-1,
Cc1noc(N)c1C1(O)C(=O)Nc2c(Cl)cc(Cl)cc21 (configuration not stated),1%,-3,.,-3.2,-9,
Cc1ccccc1N1C(=O)C(Cl)=C(N2CCOCC2)C1=O,.,.,.,59*,2,
COc1ccc(OC)c(C(c2nnnn2Cc2ccccc2)N2CCN(C3CCCCC3)CC2)c1 (configuration not stated),3%,-14,-5,-1.8,3,
O=C(Nc1ccc(S(=O)(=O)Nc2nccs2)cc1)c1cccc(N2C(=O)c3ccccc3C2=O)c1,0%,25,.,-2.6,-7,
CCCCC/C=C\C[C@H](O)/C=C/c1cccc(C[C@H](O)CCCCO)n1,-2%,-1,-7,-2.3,1,
COc1ccccc1C(=O)NCCCNC(=O)c1ccccn1,.,.,.,0.2,-6,
CNC(=O)CSc1nnc(-c2cc(C)cc(C)c2)o1,-12%,9,-22,0.3,8,
O=C(/C=C/c1ccccc1)Oc1coc(CSc2ncccn2)cc1=O,-5%,-5,.,0.3,2,
CCn1c(=O)cc(OCC(=O)NCc2ccco2)c2ccccc21,-3%,-4,-55,.,-3,
Cc1cc(C)c(C#N)c(SCC(O)CS(=O)(=O)Cc2ccccc2)n1 (configuration not stated),-8%,3,-16,-0.2,1,
CCc1nc(NCC2CCCO2)c2oc3ccccc3c2n1 (configuration not stated),-5%,8,-17,-2.8,-15,
O=C(NC1CCCCC1)C1CC(=O)N(CCc2ccc(F)cc2)C1 (configuration not stated),.,.,.,1.8,-10,
O=C(c1ccco1)N1CCN(c2cc(N3CCOCC3)c(F)cc2[N+](=O)[O-])CC1,-3%,4,.,-2.4,1,
COc1ccc(NC(=O)CSc2nc3c(c(-c4cccs4)c2C#N)CN(C)CC3)cc1OC,2%,4,-32,.,1,
CS(=O)(=O)Oc1ccccc1/C=C1/N=C(c2ccc(F)cc2)OC1=O,-6%,2,-17,4.0,-2,
CC(C)(C)c1nnc2cccc(Cl)n12,8%,4,.,-3.4,0,
COc1ccccc1/C=C/C=N/NC(=O)c1cccs1,9%,.,.,0.2,89,
O=C(NCc1ccccc1)C1=C[C@H](c2ccc3c(c2)OCO3)C[C@H](OCc2ccc(CO)cc2)O1,0%,.,.,8.9,-13,
c1ccc(-c2ccccc2OCCOCCN2CCNCC2)cc1,-5%,-6,.,-3.7,-6,
N#Cc1c2nc3ccccc3nc2n2cc(NC(=O)c3ccc(F)cc3)ccc12,2%,-17,-18,.,.,
Cn1nc([N+](=O)[O-])nc1Oc1ccccc1N,-10%,-8,-20,-3.6,9,
O=C(O/N=C\c1ccc(N2CCOCC2)c([N+](=O)[O-])c1)c1ccc(F)cc1,.,7,-21,-0.1,8,
O=C(Nc1cccc(O)c1)c1ccc(C(=O)c2ccccc2)o1,-4%,3,.,4.8,5,
CCOc1nc(NCc2ccco2)nc(Nc2ccccc2F)n1,1%,4,-8,.,-9,
CN(C)c1ccc(N=Nc2ccc(C(=O)O)cc2)cc1,.,.,.,0.2,89,
Cc1cc(C(=O)CSc2n[nH]c(N)n2)c(C)n1-c1cc(F)ccc1F,-8%,-3,-60,-3.1,3,
CCOC(=O)C1=C(Nc2ccc(Br)cc2)CC(C)(O)C(C(=O)OCC)C1c1ccccc1 (configuration not stated),-12%,-8,-2,-0.1,5,
COc1ccc(C)cc1NC(=O)CNC(C)C(=O)Nc1cc(Cl)ccc1Cl (configuration not stated),6%,-3,.,0.3,-3,
N#Cc1cc2c(N)c(C(=O)Nc3ccccc3)sc2nc1N,.,-2,-25,0.8,2,
C#C[C@@]1(O)CCC2C3CCC4=C/C(=N/OCC(=O)NC(C(=O)NC(CC(C)C)C(=O)O)C(C)C)CC[C@]4(C)C3CC[C@@]21C (some centres not stated),.,.,.,4.7,-4,
COc1ccc2nc3ccccc3nc2c1NC(=O)c1ccc(Cl)cc1,0%,-17,-31,3.0,-2,
Cc1ccc(NC(=O)Nc2cc(-c3ccccc3)nn2C)cc1Cl,57%,.,.,-3.3,3,
Cc1ccccc1OCc1nnc(SCC(=O)O)n1-c1ccccc1,.,.,.,0.1,-3,
c1ccc2c(-c3nc4ncccc4o3)cccc2c1,.,-6,-23,2.4,-6,
CCn1c(SCc2c(Cl)cccc2Cl)nc2nc3c(cc2c1=O)CCCC3,.,.,.,-15,8,
O=C(Nc1ncccc1O)c1ccc(C(=O)c2ccccc2)cc1,.,.,.,1.7,-7,
O=C(Nc1cnccn1)Nc1cccc(Cl)c1Cl,0%,-25,.,-1.7,-5,
CCOc1cc(N2CCOCC2)c(OCC)cc1NC(=O)CC12CC3CC(CC(C3)C1)C2,4%,-6,15,6.2,2,
NC(=O)NN=C1C2CCCC1C(c1ccccc1)NC2c1ccccc1 (configuration not stated),-5%,.,.,8.1,-9,
C1CC(CN2CCOCC2)CN(Cc2nc(CC3CC3)no2)C1 (configuration not stated),2%,-4,.,2.6,-1,
O=C(Nc1ccncc1)Nc1ccc(Cl)cc1Cl,.,.,.,-2.3,4,
Cc1ccc(NC(=O)c2ccc(-n3cccn3)c([N+](=O)[O-])c2)cc1C,-5%,0,-34,4.6,-10,
Cc1[nH]c2ccccc2c1SCC(=O)N1CCOCC1,36%,8,-2,0.3,-5,
COc1ccc(CN(CCN)C2CC(C)N(C)CC2C)cc1 (configuration not stated),.,.,.,-2.0,1,

# 7 entries from above, arranged by SMILES length, rising:
SMILES,Mtb H37Rv,Arbovirus inh,YopH PTP inh,RecA intein inh,Mtb betalactam,others
O=C(Nc1cnccn1)Nc1cccc(Cl)c1Cl,0%,-25,.,-1.7,-5,
COc1ccccc1C(=O)NCCCNC(=O)c1ccccn1,.,.,.,0.2,-6,
CCOc1nc(NCc2ccco2)nc(Nc2ccccc2F)n1,1%,4,-8,.,-9,
Cc1ccccc1OCc1nnc(SCC(=O)O)n1-c1ccccc1,.,.,.,0.1,-3,
O=[N+]([O-])c1c(Nc2ccccc2O)cc(N2CCOCC2)c2nonc12,-15%,.,.,0.6,-4,
CCCCC/C=C\C[C@H](O)/C=C/c1cccc(C[C@H](O)CCCCO)n1,-2%,-1,-7,-2.3,1,
COc1ccc(NC(=O)CSc2nc3c(c(-c4cccs4)c2C#N)CN(C)CC3)cc1OC,2%,4,-32,.,1,

# 2 successive records already listed:
SMILES,Mtb H37Rv,Arbovirus inh,YopH PTP inh,RecA intein inh,Mtb betalactam,others
COC(=O)c1ccc(C(=O)NC2CCCc3c2cnn3-c2ccc(C)c(C)c2)cc1 (configuration not stated),.,.,.,-1.3,6,
Nc1nc(SCC(=O)c2cccc([N+](=O)[O-])c2)n[nH]1,2%,-2,-23,1.0,-2,

# Other compounds follow.
SMILES,Mtb H37Rv,Arbovirus inh,YopH PTP inh,RecA intein inh,Mtb betalactam,others
O=S(=O)(c1ccc(Cl)cc1)N1CCN(C(=S)Nc2ccccc2F)CC1,3%,25,.,7.2,0,
O=C(NCCCn1ccnc1)/C(=C/c1cccs1)NC(=O)c1ccco1,-6%,0,.,1.3,10,
O=C(NNS(=O)(=O)c1ccc2ccccc2c1)C1CCN(Cc2ccccc2)CC1,.,9,-20,-2.6,5,
CCOC(=O)C1=C(C)NC(SCC(N)=O)=C(C#N)C1c1cccs1 (configuration not stated),-2%,-3,-29,-0.1,-8,
CCOC(=O)Cc1nc(-c2cccc(C(F)(F)F)c2)no1,4%,1,.,3.1,48,
Cc1cc(C)nc(N2C(=O)CC(C(=O)O)NC2=NCCc2c[nH]c3ccccc23)n1 (configuration not stated),-3%,3,-37,-6.8,-7,
C/C(=N\NC(=O)c1ccncc1)c1c(O)n(-c2ccccc2)c(=O)[nH]c1=O,?,.,.,-0.8,.,
CCN1CCN(c2ccc(S(=O)(=O)N3CCCCC3)cc2NC(=O)/C=C/c2ccc([N+](=O)[O-])cc2)CC1,.,.,.,1.2,20,
COc1nc(Oc2ccc(=O)n(C)n2)nc(N(C)C)n1,-11%,6,-28,.,-4,Arbovirus inh repeat=5
Fc1ccc(Nc2nc(N3CCOCC3)c3ccccc3n2)cc1,12%,-1,.,2.3,2,Arbovirus inh repeat=-6
O=C(O)c1ncn(Cc2ccc(Br)cc2)c1C(=O)O,-4%,18,.,-0.5,-6,
Brc1ccc(-c2nnc(-c3ccco3)o2)cc1,.,4,-43,1.4,59,Arbovirus inh repeat=-2
COc1ccc(CCC(=O)Nc2ccc(Cl)c(S(=O)(=O)N3CCCC3)c2)cc1,13%,.,.,0.2,-4,
CN(C)C=NC(=O)c1cc(C(=O)c2ccccc2)c[nH]1,-8%,0,.,-0.7,2,
CCCSc1nnc(NC(=O)Nc2ccc(C)cc2)s1,5%,.,.,1.4,-1,
CSCCC(NC(=O)c1ccccc1Cl)C(=O)Nc1cccc(S(=O)(=O)N2CCCC2)c1 (configuration not stated),.,.,.,0.2,-3,
O=C(Nc1ccc2c(c1)OCO2)NC1CCN(Cc2ccccc2)CC1,-5%,-9,5,1.0,-13,
CCOc1ccccc1NC(=O)N1CCCC(c2nc(-c3ccc(C)o3)no2)C1 (configuration not stated),3%,-4,.,.,4,
COc1ccc(CN(C)CC(=O)Nc2cccc3ccccc23)cc1F,.,.,.,2.8,-2,
Cc1ccc(C)c(S(=O)(=O)N2CCCOC2CNC(=O)C(=O)NCc2ccccc2)c1 (configuration not stated),.,.,.,1.1,-6,
O=C(Cc1cccs1)NCCN1CCOCC1,-1%,5,-10,-2.0,2,
Cc1ccccc1NC(=O)Cc1nc(COC(=O)CSc2ccccc2)cs1,.,.,.,4.1,7,
CC(C)(C)C1CCc2onc(C(=O)NCc3ccc(F)cc3)c2C1 (configuration not stated),.,-2,-41,-3.5,?,
Cc1ccc(S(=O)(=O)c2c(C)cc(C)nc2Oc2cccc(C)c2C)cc1,17%,-18,-37,-4.4,-5,
CCn1ncc(C(=O)Nc2ccc([N+](=O)[O-])cc2OC)c1C,.,.,.,-1.0,0,
Cc1cccc(C)c1NC(=O)c1ccc([N+](=O)[O-])s1,12%,-32,-23,-1.6,39,

# Some of the compounds tested; the hit share may differ from the screen's.
